Screening data deposited in PubChem by Broad Institute.
FGF22 binding: shifts melting point of recombinant human FGF22; Q9HCT0; recombinant FGF22 thermal shift, SYPRO orange fluorescence; percent of sucrose octasulfate shift, DMSO zero; calls only at 9.99 µM; 340,000 compounds, 1.5% hits; AID 651658;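 active = melting point raised past a set limit in the mean and every replicate; three in four hits are not shown here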
Target sequence (Q9HCT0 whole entry, looked up): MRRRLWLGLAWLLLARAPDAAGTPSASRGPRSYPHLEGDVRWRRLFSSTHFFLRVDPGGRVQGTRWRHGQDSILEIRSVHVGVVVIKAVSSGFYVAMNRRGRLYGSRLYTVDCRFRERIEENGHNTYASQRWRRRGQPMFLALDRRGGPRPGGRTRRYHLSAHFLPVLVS
Calls only; i = inactive; + = active, no number. The list is partial. The share of hits here may be higher or lower than overall.

SMILES	FGF22 binding
C[C@@H]1CN([C@H](C)CO)C(=O)c2cc(NC(=O)CCN3CCOCC3)ccc2O[C@@H]1CN(C)Cc1ccc(Cl)c(Cl)c1	i
O=C(C[C@H]1C[C@H]2c3cc(NC(=O)C4CCC4)ccc3O[C@H]2[C@@H](CO)O1)NC1CCCC1	i
CN1C(=O)c2cc(NC(=O)c3ccc(F)cc3)ccc2OC[C@@H]2O[C@H](CC(=O)NCC3CC3)CC[C@@H]21	i
COc1ccc(NC(=O)N2CCCCN3[C@@H](CO)[C@H](c4ccc(C#Cc5ccccc5)cc4)[C@@H]3C2)cc1	i
COc1cccc(C#Cc2ccc3c(c2)O[C@@H](CN(C)C(=O)c2ccccn2)[C@H](C)CN([C@@H](C)CO)S3(=O)=O)c1	i
C[C@@H]1CN([C@H](C)CO)C(=O)Cc2cc(NC(=O)c3ccncc3)ccc2O[C@@H]1CN(C)Cc1ccc(Cl)c(Cl)c1	i
COc1ccc(S(=O)(=O)N(C)C[C@@H]2OCCCC[C@@H](C)Oc3ccc(NC(=O)Nc4ccc(C(F)(F)F)cc4)cc3C(=O)N([C@H](C)CO)C[C@@H]2C)cc1	i
Cc1cc(N2CCNC[C@@H]2C)ccc1N1CCS(=O)(=O)CC1	i
COc1ccc(C#Cc2ccc3c(c2)[C@@H]2[C@@H](CCN2S(=O)(=O)c2ccccc2F)[C@@H](CO)N3C)cc1	i
O=C(/C=C(\Nc1ccc(Cl)c(Cl)c1)c1ccccc1)c1ccccc1	i
COc1cccc(S(=O)(=O)N[C@@H]2CC[C@@H](CC(=O)NCc3ccccc3)O[C@H]2CO)c1	i
O=C(N[C@H]1CC[C@H](CCNC(=O)C2CCOCC2)O[C@H]1CO)c1ccccn1	i
O=C(C1CCOCC1)N1CC(=O)N2[C@@H](CO)[C@@H](c3ccc(C#Cc4cccc(F)c4)cc3)[C@@H]2C1	i
COc1cccc(S(=O)(=O)N2C[C@H](O)COC[C@H]3O[C@@H](CC(=O)N4CCOCC4)CC[C@@H]32)c1	i
C[C@H]1CN([C@@H](C)CO)C(=O)Cc2cc(NC(=O)Cc3ccccc3)ccc2O[C@@H]1CN(C)Cc1ccc(C(=O)O)cc1	i
O=C(C[C@H]1CC[C@@H]2NC[C@@H](O)COC[C@H]2O1)NCc1ccc2c(c1)OCO2	i
C[C@@H]1CN([C@H](C)CO)C(=O)Cc2cc(NC(=O)Nc3cccc4ccccc34)ccc2O[C@H]1CN(C)Cc1ccc(Cl)c(Cl)c1	i
COc1ccc(NC(=O)Nc2ccc3c(c2)C(=O)N([C@H](C)CO)C[C@@H](C)[C@H](CN(C)Cc2ccc(C(F)(F)F)cc2)OCCCC[C@@H](C)O3)cc1	i
CNC[C@@H]1Oc2c(NC(=O)Nc3ccc(C(F)(F)F)cc3)cccc2C(=O)N([C@H](C)CO)C[C@H]1C	i
C[C@@H]1CN([C@H](C)CO)C(=O)c2cc(NC(=O)CCN3CCOCC3)ccc2O[C@@H]1CN(C)Cc1ccc2c(c1)OCO2	i
O=C(NCc1ccccn1)[C@@H]1[C@@H](CO)[C@@H]2Cn3c(ccc(/C=C/c4ccccc4)c3=O)[C@H]1N2CC1CC1	i
COc1ccc(C[C@@H]2CCc3cnnn3COC[C@H](Cc3ccccc3)NC2=O)cc1	i
COC(=O)C[C@H]1C[C@H]2c3cc(N)ccc3O[C@H]2[C@H](CO)O1	i
O=C(C[C@H]1CC[C@@H](NC(=O)Nc2ccc(C(F)(F)F)cc2)[C@@H](CO)O1)NCc1cc(F)cc(F)c1	i
CC(=O)N1Cc2cc(C(=O)NCc3cc(F)cc(F)c3)nc(-c3cccc(C4=CCCC4)c3)c2[C@H]1CCO	i

Additional records follow.
SMILES	FGF22 binding
C[C@H]1CN([C@@H](C)CO)C(=O)c2cccc(NC(=O)Nc3cccc4ccccc34)c2O[C@@H]1CN(C)C(=O)Nc1cccc2ccccc12	i
CO[C@@H]1CN(C)C(=O)c2ccc(NC(C)=O)cc2OC[C@H](C)N(Cc2cc(F)ccc2F)C[C@H]1C	i
O=C(Cc1ccccn1)NCC[C@H]1CC[C@H](NC(=O)Nc2ccccc2)[C@H](CO)O1	i
C[C@@H]1CCCCO[C@@H](CN(C)Cc2ccccc2)[C@@H](C)CN([C@H](C)CO)C(=O)c2cc(NC(=O)Nc3ccccc3)ccc2O1	i
COc1ccc(NC(=O)Nc2ccc3c(c2)CC(=O)N([C@@H](C)CO)C[C@H](C)[C@H](CN(C)Cc2ccc(C(F)(F)F)cc2)O3)cc1	i
C[C@@H]1CN([C@@H](C)CO)C(=O)c2cc(NC(=O)Cc3cn(C)c4ccccc34)ccc2O[C@@H]1CN(C)Cc1ccccc1	i
Cc1ccc(S(=O)(=O)N(C)C[C@H]2Oc3ccc(NC(=O)NC(C)C)cc3C(=O)N([C@H](C)CO)C[C@H]2C)cc1	i
C[C@H]1CN([C@@H](C)CO)C(=O)Cc2cc(NC(=O)C3CC3)ccc2O[C@@H]1CN(C)C(=O)Nc1ccc2c(c1)OCO2	i
O=C(C[C@@H]1C=C[C@H](NC(=O)C2CCC2)[C@H](CO)O1)NCCCN1CCOCC1	i
O=C(c1ccccn1)N1CC2(C1)[C@@H](c1ccccc1)[C@@H](CO)N2Cc1ccc(F)cc1	i
N#C[C@@H]1[C@@H](c2ccccc2-c2ccccc2F)[C@@H](CO)N1C(=O)C1CCOCC1	i
COc1ccc(CN(C)C[C@@H]2OCCCC[C@H](C)Oc3ccc(NC(=O)NC4CCCCC4)cc3C(=O)N([C@H](C)CO)C[C@H]2C)cc1	i
CCNC(=O)C[C@@H]1CC[C@H]2[C@H](COc3ccc(NC(=O)Cc4ccccc4)cc3C(=O)N2C)O1	i
NCC[C@@H]1CC[C@H](NC(=O)CCN2CCCCC2)[C@H](CO)O1	i
O=C(Nc1cccc(F)c1)N1CCCCN2[C@H](CO)[C@H](c3ccc(-c4ccncc4)cc3)[C@H]2C1	i
CO[C@H](CN(C)S(=O)(=O)c1ccc(Cl)cc1)[C@@H](C)CN(Cc1ccccc1Cl)[C@H](C)CO	i
C[C@H]1CN([C@@H](C)CO)C(=O)c2cccc(NS(C)(=O)=O)c2O[C@H]1CN(C)Cc1ccncc1	i
COc1ccc2c3c([nH]c2c1)[C@H](CO)N(C(=O)CC1CC1)CC31CN(C(=O)CC2CC2)C1	i
COc1ccc(NC(=O)Nc2ccc3c(c2)CC(=O)N([C@@H](C)CO)C[C@H](C)[C@@H](CN(C)S(=O)(=O)c2ccc(Cl)cc2)O3)cc1	i
COCC(=O)N1CC(=O)N2[C@H](CO)[C@@H](c3ccc(-c4ccccc4F)cc3)[C@H]2C1	i
O=C(C[C@H]1C=C[C@H](NC(=O)c2ccccn2)[C@H](CO)O1)NCc1cc(F)cc(F)c1	i
CO[C@@H]1CN(C)C(=O)c2cc(NC(=O)c3cc(C)on3)ccc2OC[C@@H](C)N(CC2CC2)C[C@@H]1C	i
COc1ccc(NC(=O)Nc2ccc3c(c2)C(=O)N([C@@H](C)CO)C[C@H](C)[C@@H](CN(C)Cc2ccncc2)OCCCC[C@@H](C)O3)cc1	i
O=C(N[C@H](C(=O)N1CCC[C@H]1C(=O)NCCc1ccccc1Cl)c1ccccc1)c1ccc(Cl)cc1Cl	i
C[C@H](CO)N1C[C@H](C)[C@H](CN(C)CC2CC2)Oc2c(NC(=O)c3cnccn3)cccc2C1=O	i

Reprinted from the listing for reference:
SMILES	FGF22 binding
C[C@H]1CN([C@@H](C)CO)C(=O)c2cccc(NC(=O)Nc3cccc4ccccc34)c2O[C@@H]1CN(C)C(=O)Nc1cccc2ccccc12	i
CO[C@@H]1CN(C)C(=O)c2ccc(NC(C)=O)cc2OC[C@H](C)N(Cc2cc(F)ccc2F)C[C@H]1C	i
O=C(Cc1ccccn1)NCC[C@H]1CC[C@H](NC(=O)Nc2ccccc2)[C@H](CO)O1	i
C[C@@H]1CCCCO[C@@H](CN(C)Cc2ccccc2)[C@@H](C)CN([C@H](C)CO)C(=O)c2cc(NC(=O)Nc3ccccc3)ccc2O1	i
COc1ccc(NC(=O)Nc2ccc3c(c2)CC(=O)N([C@@H](C)CO)C[C@H](C)[C@H](CN(C)Cc2ccc(C(F)(F)F)cc2)O3)cc1	i
C[C@@H]1CN([C@@H](C)CO)C(=O)c2cc(NC(=O)Cc3cn(C)c4ccccc34)ccc2O[C@@H]1CN(C)Cc1ccccc1	i
Cc1ccc(S(=O)(=O)N(C)C[C@H]2Oc3ccc(NC(=O)NC(C)C)cc3C(=O)N([C@H](C)CO)C[C@H]2C)cc1	i
C[C@H]1CN([C@@H](C)CO)C(=O)Cc2cc(NC(=O)C3CC3)ccc2O[C@@H]1CN(C)C(=O)Nc1ccc2c(c1)OCO2	i
O=C(C[C@@H]1C=C[C@H](NC(=O)C2CCC2)[C@H](CO)O1)NCCCN1CCOCC1	i
O=C(c1ccccn1)N1CC2(C1)[C@@H](c1ccccc1)[C@@H](CO)N2Cc1ccc(F)cc1	i
N#C[C@@H]1[C@@H](c2ccccc2-c2ccccc2F)[C@@H](CO)N1C(=O)C1CCOCC1	i
COc1ccc(CN(C)C[C@@H]2OCCCC[C@H](C)Oc3ccc(NC(=O)NC4CCCCC4)cc3C(=O)N([C@H](C)CO)C[C@H]2C)cc1	i

(more compounds)
SMILES	FGF22 binding
COC(=O)C[C@H]1C[C@H]2c3cc(NS(=O)(=O)c4ccc(F)cc4)ccc3O[C@H]2[C@@H](CO)O1	i
CCC(=O)NC[C@H]1[C@@H](c2ccccc2)[C@H](CO)N1C(=O)C1CC1	i
C[C@H](CO)N1C[C@H](C)[C@@H](CN(C)C(=O)CN(C)C)Oc2ncc(/C=C/c3ccccc3)cc2C1=O	i
COc1cccc(S(=O)(=O)N(C)C[C@@H]2Oc3cc(C#CCN(C)C)ccc3S(=O)(=O)N([C@@H](C)CO)C[C@@H]2C)c1	i
COC(=O)[C@]12C[C@H](CC(=O)NCc3cccs3)C(=O)N(Cc3ccc4c(c3)OCO4)C1=C[C@H](COCc1ccccc1)O[C@@H]2C	i
O=C(C[C@H]1C[C@@H]2c3cc(NC(=O)NC4CCCC4)ccc3O[C@@H]2[C@H](CO)O1)NC1CCCC1	+
Cc1ccc(S(=O)(=O)N2C[C@@H](O)COC[C@H]3O[C@H](CC(=O)NCc4ccc5c(c4)OCO5)CC[C@@H]32)cc1	i
Cc1ccc(S(=O)(=O)Nc2ccc3c(c2)C(=O)N([C@H](C)CO)C[C@@H](C)[C@H](CN(C)C(=O)Nc2ccc(C(F)(F)F)cc2)OCCCC[C@H](C)O3)cc1	i
C[C@@H]1CN([C@@H](C)CO)C(=O)c2cc(NS(=O)(=O)c3cn(C)cn3)ccc2O[C@@H](C)CCCCO[C@H]1CN(C)C	i
CN(C)CC(=O)N1CCCCN2[C@@H](CO)[C@@H](c3ccc(/C=C/c4ccccc4)cc3)[C@@H]2C1	i
C[C@H]1CN([C@@H](C)CO)C(=O)c2cccc(NC(=O)c3nc4ccccc4s3)c2O[C@H]1CN(C)Cc1ccc(C(=O)O)cc1	i
O=C(O)C[C@@H]1C=C[C@@H](NC(=O)Nc2cc(F)ccc2F)[C@@H](CO)O1	i
C[C@@H]1CCCCO[C@@H](CN(C)Cc2ccncc2)[C@@H](C)CN([C@H](C)CO)C(=O)c2cc(NC(=O)NC3CCCCC3)ccc2O1	i
O=C(NCC(F)(F)F)[C@@H]1[C@@H](CO)[C@@H]2Cn3c(ccc(-c4cccnc4)c3=O)[C@H]1N2Cc1ccccc1	i
C[C@H](CO)N1C[C@H](C)[C@H](CN(C)S(=O)(=O)c2ccccc2)Oc2c(NC(=O)Nc3cccc4ccccc34)cccc2C1=O	i
C[C@H](CO)N1C[C@H](C)[C@@H](CN(C)C(=O)Nc2ccc(C(F)(F)F)cc2)Oc2ccc(NC(=O)Cc3ccccc3)cc2CC1=O	i
C[C@H](CO)N1C[C@H](C)[C@@H](CN(C)C(=O)CCN2CCCCC2)Oc2ncc(C#CCN(C)C)cc2C1=O	i
O=C(Nc1ccc(C(F)(F)F)cc1)N[C@H]1CC[C@@H](CC(=O)N2CCCCC2)O[C@H]1CO	i
C[C@H]1CN([C@@H](C)CO)C(=O)c2cc(NC(=O)CCN3CCOCC3)ccc2O[C@H]1CN(C)Cc1ccc(-c2ccccc2)cc1	i
COc1ccccc1S(=O)(=O)N[C@H]1CC[C@H](CCNC(=O)C2CC2)O[C@@H]1CO	i
C[C@H](CO)N1C[C@H](C)[C@H](CN(C)Cc2cccnc2)OCc2ccccc2-c2ccccc2C1=O	i
CN1CCN(C(=O)C[C@@H]2CC[C@@H]3[C@H](COC[C@H](O)CN3C(=O)Cc3ccccc3)O2)CC1	i
C[C@@H]1CN([C@@H](C)CO)C(=O)c2cc(C#Cc3ccccc3F)cnc2O[C@@H]1CN(C)C(=O)c1ccc2c(c1)OCO2	i
Cc1cc(C)cc(NC(=O)Nc2ccc3c(c2)C(=O)N(C)[C@@H]2CC[C@H](CC(=O)O)O[C@H]2CO3)c1	i
COc1ccccc1-c1ccc([C@@H]2C[C@H]3[C@H](CON3C)CN2S(=O)(=O)c2cc(Cl)cc(Cl)c2)cc1	i

The results go on.
SMILES	FGF22 binding
CC(C)C#Cc1ccc([C@H]2[C@@H](C#N)N(C(=O)CN(C)C)[C@H]2CO)cc1	i
C/C=C/c1cnc2c(c1)C(=O)N([C@@H](C)CO)C[C@H](C)[C@@H](CN(C)C(=O)NC1CCCC1)O2	i
O=C(C[C@H]1CC[C@@H](NC(=O)Nc2ccccc2F)[C@@H](CO)O1)NCc1ccccc1	i
CN1c2ccc(-c3ccccc3)cc2[C@@H]2[C@@H](CCN2C(=O)c2ccccc2)[C@@H]1CO	i
C[C@@H]1CN([C@@H](C)CO)C(=O)Cc2cc(NC(=O)Cn3cnnn3)ccc2O[C@H]1CN(C)S(=O)(=O)c1cccs1	i
CCN1[C@@H]2c3ccc(C4=CCCC4)c(=O)n3C[C@@H]2[C@@H](CO)[C@@H]1C(=O)NCc1ccccn1	i
CO[C@@H]1CN(C)C(=O)c2cc(NS(=O)(=O)c3cccc(C)c3)ccc2OC[C@H](C)NC[C@H]1C	i
C[C@H](NC(=O)C[C@@H]1C=C[C@H](NC(=O)C2CCOCC2)[C@H](CO)O1)c1ccccc1	i
C[C@H](CO)N1C[C@H](C)[C@H](CN(C)C(=O)C2CCC2)Oc2ncc(C#Cc3cccc(F)c3)cc2C1=O	i
CN1C(=O)c2cc(NC(=O)C3CCCCC3)ccc2OC[C@H]2O[C@@H](CC(=O)NC3CCCC3)CC[C@@H]21	i
